# GIRK2 activ: GIRK2 channel activation; 63,000 tested, 0.05% active; calls only for hits at 25 µM; HEK293-GIRK2 thallium flux, Thallos fluorescence; P48051; AID 1259325;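 active means among the strongest 0.2% of first-round signals and kept after retests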;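 further: first round at about 10 µM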
# Target sequence (P48051 whole entry, looked up): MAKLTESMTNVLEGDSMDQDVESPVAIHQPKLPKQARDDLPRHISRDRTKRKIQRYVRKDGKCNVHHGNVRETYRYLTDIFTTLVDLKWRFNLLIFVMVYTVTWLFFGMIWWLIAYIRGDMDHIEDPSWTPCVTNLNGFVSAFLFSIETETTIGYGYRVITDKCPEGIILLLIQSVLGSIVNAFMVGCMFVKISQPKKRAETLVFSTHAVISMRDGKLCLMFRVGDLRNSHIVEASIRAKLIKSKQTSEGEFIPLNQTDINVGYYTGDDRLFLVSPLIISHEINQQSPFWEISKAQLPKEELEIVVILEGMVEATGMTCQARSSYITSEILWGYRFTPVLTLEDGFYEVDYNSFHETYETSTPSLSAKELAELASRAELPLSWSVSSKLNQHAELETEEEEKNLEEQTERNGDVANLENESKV
# Calls only; i = inactive.
compound,GIRK2 activ
CSc1cccc(NC(=O)CSC2=NNC3C4CC(c5ccc(F)cc5)NN4C=CN23)c1 (centres undefined),i
CCc1ccc(NC(=O)N2CCN(c3ccc(Nc4ccccn4)nn3)CC2)cc1,i
C=C1CC[C@H]2[C@@H](C=C(C)C(=O)[C@@]3(OC(C)=O)C[C@H](C)[C@H](OC(C)=O)[C@@H]3[C@H]1OC(C)=O)C2(C)C,i
CC(C)c1cnc2c(c1SCC(=O)Nc1cccc([N+](=O)[O-])c1)c(=O)n(C)c(=O)n2C,i
O=C(CSc1nc2ccccc2o1)N1CCN(c2cc(N3CCCCC3)ncn2)CC1,i
O=C1/C(=C/c2cccnc2)SC(=S)N1c1cccc(O)c1,i
Nc1c(C(=O)NCc2ccco2)c2nc3ccccc3nc2n1C1CCCC1,i
CSc1cccc(NC(=O)CSc2nccc(N3CCCC3)n2)c1,i
COc1cccc(OCC(=O)NCC(O)C2CCCCC2)c1 (centres undefined),i
CC1CCN(c2ccnc(=S)[nH]2)CC1,i
COc1ccc(-c2ccc(N3CCN(C(=O)C(C)Oc4cccc(F)c4)CC3)nn2)cc1 (centres undefined),i
Cc1ccc(CNC(=O)Cn2cc(C(=O)N3CCOCC3)c(=O)c3ccc(C)nc32)cc1,i
O=S(=O)(NCCN1CCN(c2ccc(Cl)cc2)CC1)c1ccc(F)cc1,i
O=C(CSc1nccnc1N1CCN(c2ccccc2)CC1)Nc1ccccc1Br,i
O=C(Nc1cccs1)N1CCC(Cn2c(C(F)(F)F)nc3ccccc32)CC1,i
CCN(CC)C(=O)Cn1c(C2CC(=O)N(c3ccc(OC)cc3)C2)nc2ccccc21 (centres undefined),i
Cc1ccc(-c2csc3nnc(SCC(=O)c4ccc5c(c4)OCCO5)n23)cc1,i
Cc1ccc(NC(=O)c2ccc(S(=O)(=O)N3CCCCC3)cc2)c(C(=O)c2ccccc2)c1,i
O=c1c(=O)n(-c2ccccc2)ccn1Cc1nc(-c2ccc3c(c2)OCO3)no1,i
COc1ccccc1Oc1ccc(S(=O)(=O)Nc2ccc(C(=O)O)cc2)cc1,i

# A different layout for some results above:
COc1ccc(-c2ccc(N3CCN(C(=O)C(C)Oc4cccc(F)c4)CC3)nn2)cc1 (centres undefined)
  GIRK2 activ: i
Cc1ccc(NC(=O)c2ccc(S(=O)(=O)N3CCCCC3)cc2)c(C(=O)c2ccccc2)c1
  GIRK2 activ: i
O=C(Nc1cccs1)N1CCC(Cn2c(C(F)(F)F)nc3ccccc32)CC1
  GIRK2 activ: i
Cc1ccc(-c2csc3nnc(SCC(=O)c4ccc5c(c4)OCCO5)n23)cc1
  GIRK2 activ: i

# Further structures:
compound,GIRK2 activ
CCn1cc(C(=O)Nc2nnc(C(F)(F)F)s2)c(=O)c2cc(Cl)ccc21,i
Cc1cc(NC(=O)CN2CCN(CC(O)c3ccco3)CC2)no1 (centres undefined),i
O=C(Cn1nc2c(c1NC(=O)CSCc1ccccc1)CSC2)NCc1ccco1,i
COc1cccc(Oc2cn[nH]c2-c2ccc(O)cc2O)c1,i
O=C(CCS(=O)(=O)Cc1ccccc1)Nc1nc2cc3c(cc2s1)OCCO3,i
CC1CCN(C(=O)COc2ccc(-c3ccccc3)cc2)CC1,i
Cc1cn(C)nc1C(=O)Nc1nc2c(cc3c4c(cccc42)CC3)s1,i
O=C(Nc1nc(-c2ccccc2)ns1)c1cccc(Br)c1,i
O=C(CSc1ncnc2c(-c3ccccc3)c[nH]c12)Nc1ccc2c(c1)OCO2,i
CC1Cc2ccccc2N1C(=O)C1CCN(c2ccc(-c3ccco3)nn2)CC1 (centres undefined),i
CCn1nc(C(=O)NCCN2CCOCC2)ccc1=O,i
COc1ccc(Nc2c(-c3nc(C4CC4)no3)cnc3nc(C)ccc23)cc1OC,i
COc1ccc(OCc2noc(CNC(=O)CSc3ccc(F)cc3)n2)cc1,i
Cn1c(=O)c2c(nc(CN3CCCCC3)n2CCN2CCOCC2)n(C)c1=O,i
Cc1ccc(C)c(NC(=O)Cn2nc3c4cc(-c5ccc(F)cc5)nn4ccn3c2=O)c1,i
O=C(NCC1(c2ccc(F)cc2)CC1)C1CCCCC1,i
CCN1CCc2c(sc(NC(=O)CSc3ccccc3)c2-c2nc3ccccc3s2)C1,i
Cc1c(C)c2c(c(C)c1O)CCC(C)(CCCC(C)C(=O)O)O2 (centres undefined),i
COc1cccc(NC(=O)c2cn(CC(O)c3ccccc3)nn2)c1 (centres undefined),i
C=CCOC(=O)COc1ccc2c(=O)c(-c3ccccc3OC)c(C)oc2c1,i
Cc1ccc2c(Nc3ccc(Br)cc3)c(C(=O)N3CCSCC3)cnc2n1,i
O=C(CCS(=O)(=O)Cc1ccccc1)N(Cc1ccco1)c1nc2ccccc2s1,i
O=C(Nc1cnc(N2CCN(c3ccccc3)CC2)nc1)c1ccco1,i
CCNC(=O)C(=O)NCCc1ccc2c(c1)CCCN2C,i
CCOC(=O)N1CCN(C(=O)C2CCCN(c3ccc(-c4ccco4)nn3)C2)CC1 (centres undefined),i
Cc1cc(C(=O)Nc2ccc(-n3nnn(CC(=O)NCc4ccco4)c3=O)cc2)no1,i
N#Cc1ccc(Cl)cc1NC(=O)C1CCCN(c2ccc(-c3ccc(F)cc3)nn2)C1 (centres undefined),i
Cn1cc(-c2cccs2)nc1CCNC(=O)C(c1ccccc1)c1ccccc1,i
COC(=O)Cn1c(=NC(=O)CCCS(=O)(=O)Cc2ccccc2)sc2cc(F)cc(F)c21,i
Cc1csc(CN2CCN(C(=O)C3CCCC3)CC2)n1,i
CN1CCC(CNS(=O)(=O)c2ccc(OC(F)(F)F)cc2)CC1,i
COc1cccc(-c2noc(-c3sccc3S(=O)(=O)N(C)c3cccc(Cl)c3)n2)c1OC,i
Cc1cc(C(=O)Nc2nc(C(=O)N3CCc4ccccc43)co2)no1,i
O=C(Nc1ccc(Cl)cn1)c1cc(-c2ccc3c(c2)OCCO3)on1,i
CC(CNC(=O)CC1=NS(=O)(=O)c2ccccc2N1)c1ccccc1 (centres undefined),i
COc1ccc(NC(=O)Cn2c3ccccc3c3ncn(Cc4nc(C)no4)c(=O)c32)cc1Cl,i
Cc1ccc(NC(=O)c2ccc(S(=O)(=O)N3CCCC3)cc2)c(C(=O)c2ccccc2)c1,i
O=c1[nH]c2ccccc2nc1-c1cc(Cl)ccc1NS(=O)(=O)c1ccccc1,i
CCN1CCN(c2nc3c(c(=O)[nH]c(=O)n3C)n2CCCOc2ccccc2)CC1,i
Cc1nnc(CNC(=O)c2csc(-c3ccccc3)n2)o1,i

# Copied from the results shown for reference:
compound,GIRK2 activ
O=c1[nH]c2ccccc2nc1-c1cc(Cl)ccc1NS(=O)(=O)c1ccccc1,i
CCN1CCN(c2nc3c(c(=O)[nH]c(=O)n3C)n2CCCOc2ccccc2)CC1,i
Cc1nnc(CNC(=O)c2csc(-c3ccccc3)n2)o1,i

# Later entries:
compound,GIRK2 activ
COc1ccc(CCNC(=O)c2cc(=O)c(OCc3ccccc3)cn2C)cc1OC,i
CC(C)(C)C(=O)Cn1c(=O)n(CCCC(=O)NCc2ccc(F)cc2)c(=O)c2ccccc21,i
COc1cccc(S(=O)(=O)NC2CCCC(OC(=O)Nc3ccc(F)cc3)C2)c1 (centres undefined),i
O=S(=O)(c1cccc(C(F)(F)F)c1)N1CCC(Cc2ccccc2)CC1,i
COc1ccc(NC(=O)Cn2cnc3c(-c4ccncc4)nsc3c2=O)cc1,i
Cc1nnc(NC(=O)c2cc(-c3ccc(F)cc3)c[nH]2)s1,i
COc1cc(C)c(/C=C/C(C)=C/C=C/C(C)=C/C(=O)O)c(C)c1C,i
COC(=O)c1ccc(NC(=O)Cn2nc3c(N4CCOCC4)nccn3c2=O)cc1,i
O=[N+]([O-])c1ccc(S(=O)(=O)O)cc1,i
COc1ncc(NC(=O)c2ccc(Cl)cc2Cl)cn1,i
CN(CC(=O)N1CCn2c1nc1ccccc12)c1nc2c(Cl)cccc2s1,i
Cc1cc(=O)[nH]c(-n2nc(-c3cccs3)cc2NC(=O)COc2ccc(Cl)cc2)n1,i
CCCn1c(-c2ccc(OC)cc2)nc2c(c(=O)c3ccccc3n2C)c1=O,i
O=C(c1cccs1)N1CCN(c2ccc3nncn3n2)CC1,i
COc1ccc(C)cc1N1CCn2c1nc1c2c(=O)n(Cc2ccccc2C)c(=O)n1C,i
COc1ccc(CCNC(=O)C2CSCCC(=O)N2)cc1OC (centres undefined),i
O=S(=O)(c1cccc2cccnc12)N1CCC(Cc2ccccc2)CC1,i
Cc1ccc(N2CCn3c2nn(CC(=O)Nc2c(C)cc(C)cc2C)c(=O)c3=O)cc1,i
COc1ccccc1N1CCN(c2nccnc2SCC(=O)Nc2cc(C)cc(C)c2)CC1,i
COc1ccc(CNC(=O)NCCC(O)C2CC2)cc1 (centres undefined),i
O=C(Cn1cccc(-c2nc(-c3ccccc3Cl)no2)c1=O)c1ccc(F)cc1,i
CCOc1ccc2nc(N(CCN3CCOCC3)C(=O)/C=C/c3cccs3)sc2c1,i
N#Cc1cccc(C(=O)c2cnn(-c3ccc(F)cc3)c2N)c1,i
O=C(Nc1cc(N2CCOCC2)ncn1)C1CCCN(c2ccc(-c3ccco3)nn2)C1 (centres undefined),i
CC(Oc1ccccc1)C(=O)Nc1cccc(-c2ccn[nH]2)c1 (centres undefined),i
COc1ccc(-c2c(C#N)c(N)nc3c2CN(C)CC3)c(OC)c1OC,i
Cc1cccc(C(=O)N2CCCSCC2CN2CCCC2)c1 (centres undefined),i
Cc1nc(-c2ccc(N3CCN(S(=O)(=O)c4ccc5c(c4)CCCC5)CC3)nc2)no1,i
O=S(=O)(CCOc1ccccc1)N1CCN(c2ccccc2F)CC1,i
Cc1ccccc1C(=O)NCC1(c2ccc(F)cc2)CCOCC1,i
CC(C)Cn1c(SCC(=O)c2ccc(Br)cc2)nc2c1c(=O)[nH]c(=O)n2C,i
O=C(NC1CC1)C1CCN(c2ccc(-n3cccn3)nn2)CC1,i
COc1c[nH]c(C(=O)Nc2ccc(C(C)C)cc2)cc1=O,i
Cn1c(=O)c2c(nc3n2CC(c2ccccc2)=NN3CC(N)=O)n(C)c1=O,i
CC(C)(C)c1ccc(C(=O)Nc2sc3c(c2-c2nc4ccccc4s2)CCCC3)cc1,i
Cc1ccccc1-n1nnc(C(=O)N2CCN(S(C)(=O)=O)CC2)c1-c1ccncc1,i
O=C1CCCN1c1ccc(Cn2cccc(-c3nc(-c4ccncc4)no3)c2=O)cc1,i
CCn1c(SCC(=O)Nc2ccc(C#N)cc2)nc2cc(-c3ccccc3)sc2c1=O,i
Cc1ccc(NC(=O)Cn2cccc(-c3nc(-c4ccc(Cl)cc4)no3)c2=O)cc1F,i
COc1cccc(N2CC(C(=O)NCc3n[nH]c(=O)c4ccccc34)CC2=O)c1 (centres undefined),i

# 2 compounds picked at random from the list so far:
compound,GIRK2 activ
Cc1cn(C)nc1C(=O)Nc1nc2c(cc3c4c(cccc42)CC3)s1,i
O=C(Nc1cnc(N2CCN(c3ccccc3)CC2)nc1)c1ccco1,i

# (more compounds)
compound,GIRK2 activ
COc1ccc(NC(=O)Cn2ncn3nc(-c4ccc(C)c(C)c4)cc3c2=O)c(OC)c1,i
Cc1[nH]c2ccccc2c1C(=O)C(=O)NC1CCCC(OC(=O)Nc2ccccc2)C1 (centres undefined),i
COC(=O)Cn1c(=O)c2c(nc3n(-c4ccc(Oc5ccccc5)cc4)c(C)c(C)n23)n(C)c1=O,i
COc1cccc(N2C(=O)N(c3ccccc3OC)C3CS(=O)(=O)CC32)c1 (centres undefined),i
O=C(CCCn1c(=O)[nH]c2ccccc2c1=O)NCc1ccccc1,i
O=S(=O)(NCCc1ccccc1)c1cccc(Cl)c1,i
Cc1ccc(-n2ncc3c(=O)n(CC(=O)N4CCCCCC4)cnc32)c(C)c1,i
COc1ccccc1CNC(=O)c1coc(NC(=O)C2CC2)n1,i
COc1ccccc1-n1c(C)cn2c3c(=O)n(Cc4ccccc4F)c(=O)n(C)c3nc12,i
O=C(c1ccc(Cl)c(S(=O)(=O)N2CCCCC2)c1)N1CCc2ccccc21,i
CC(C)OCCCNC(=O)CCn1c(=O)[nH]c2ccccc2c1=O,i
O=C(CN1CCN(Cc2cn3ccccc3n2)CC1)c1ccco1,i
COCCn1c(=O)c2c(nc(-n3nc(C)cc3C)n2C)n(C)c1=O,i
COc1cccc(OC)c1C(=O)NCC(c1cccc2ccccc12)N1CCOCC1 (centres undefined),i
Cc1cc(C(=O)NCc2nn(C3CCCC3)c(=O)c3ccccc23)no1,i
O=S(=O)(NCC1(O)CCOc2ccccc21)c1cccs1 (centres undefined),i
CNC(=O)CSc1ncc(-c2ccc(OC)cc2)n1-c1cccc(Cl)c1,i
CCC(C)NC(=O)Cn1nc2n(Cc3ccccc3)c(=O)c3ccc(C(=O)NC(C)C)cc3n2c1=O (centres undefined),i
O=C(NCC1COC2(CCCC2)O1)C(=O)Nc1ccc2c(c1)OCCO2 (centres undefined),i
O=C(COc1ccccc1F)NCCOc1ccc2nnc(-c3ccccc3)n2n1,i
CC12CCC(O)CC1=CCC1C2CCC2(C)/C(=N\NC(=O)CCC(=O)O)CCC12 (centres undefined),i
COc1ccc(C2CCN(C(=O)CSCc3ccccc3)C2)cc1 (centres undefined),i
COc1ccc(CNC(=O)Cn2nc3ccc(-c4ccccc4)nn3c2=O)cc1,i
O=C(CN1CCc2nc(NC(=O)c3cnccn3)sc2C1)Nc1cc(C(F)(F)F)ccc1Cl,i
N=C(N)SCCCC(N)C(=O)O (centres undefined),i
C/C=C/C(=O)NCC#CCOc1ccccc1OC,i
O=C(c1ccco1)N1CCN(C(=O)c2cc(OCc3ccccc3)no2)CC1,i

# High-throughput results: PubChem, Vanderbilt University

# Only part of the results is shown, so the mix of outcomes need not match the whole.
